# Compound activity (PubChem BioAssay)
# Mtb hypoxia rep: inhibitors of hypoxia-regulated fluorescent reporter in Mycobacterium tuberculosis | 300,000 tested, 0.1% active | M. tuberculosis hypoxia-regulated fluorescent reporter, fluorescence | fluorescence inhibition, % (no concentration beside the values) | AID 1159583;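 active = 35 to 45% if threefold the growth effect, above 45% if 1.5-fold the growth effect; inactive = the rest, general growth blockers included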;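 also: wells of about 50 µL received 100 nL stock; 0% = vehicle wells and 100% = reference inhibitor wells; whole bacteria with a GFP reporter of the hypoxia response; strong numbers were not always called active; many hits fall short of the cut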
# BJeLR viability: kills HRASV12-expressing BJeLR cells; BJeLR (HRASV12) viability, CellTiter-Glo ATP luminescence, 48 h; reference of the scale not given here; inhibition, % (concentration not given with the values); 300,000 tested, 0.17% active; AID 1554;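 active = replicate mean above 50%; inconclusive = above 50% but judged a plate artefact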;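 also: 50 nL library stock added to about 25 µL; numbers are from one replicate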
# PrP 5UTR inh: inhibition of PrP 5' UTR reporter expression; cell-based PrP 5' UTR mRNA reporter, plate reader; inhibition, % (concentration not given with the values); 340,000 tested, 0.35% active;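 active = every replicate at 50% or more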;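 also: 0 = median of the neutral control wells; tested in H4 reporter cells; numbers are from one replicate; inactives centre near -14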
# Sa RN4220 lethal: S. aureus RN4220 growth inhibition. AID 1259311. OD600, 16 h. inhibition, % (test concentration not listed). 330,000 tested, 0.33% active;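 active = z-score of -3 or lower and OD600 up to 0.18 on both plates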;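 also: plate controls were untreated cells for no effect and reference antibiotic for full effect; stock transfer was 100 nL into about 80 µL; one replicate is shown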
# Bead autofluor: compound fluorescence in toxin protease inhibitor counterscreen; compound autofluorescence counterscreen, microsphere flow cytometry; active compounds read high; fluorescence intensity (no concentration beside the values); 360,000 tested, 3.1% active; AID 624483;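 active = at least 3 SD above the mean of all compounds, about 16000 in these data; inconclusive = too few beads counted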;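 also: 100 nL of 1 mM stock went into each well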
# Sa ugtP lethal: kills S. aureus RN4220 lacking UgtP; growth inhibition, % (no concentration beside the values); S. aureus RN4220 ugtP deletion, OD600 growth, 16 h; some inactives read as strong as hits; 330,000 tested, 0.54% active; AID 1259309;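 active = z-score under -3 and OD600 up to 0.15 on both plates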;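 also: plate controls were untreated wells for no effect and antibiotic for full effect; wells of about 80 µL received 100 nL stock; the first replicate is given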
# Mtb hypoxia rep growth: recorded beside Mtb hypoxia rep, whose call it bears; growth inhibition, %; measured here: M. tuberculosis growth (absorbance);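 0% = vehicle and 100% = reference antibiotic; read after six days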
# Numbers without * were called inactive; ? = inconclusive; . = not tested or not shown.
compound	Mtb hypoxia rep	Mtb hypoxia rep growth	BJeLR viability	PrP 5UTR inh	Sa RN4220 lethal	Bead autofluor	Sa ugtP lethal
COc1ccc(C(C(=O)NC2CCCC2)N(Cc2cccnc2)C(=O)c2snc(C(N)=O)c2N)cc1 (stereo not given)	-7	-7	-4	-21	0.8	4610	2
CCCCCCC(C)OC(=O)c1ccccc1C(=O)O (stereo not given)	.	.	3	-27	.	3516	.
Cc1oc(-c2ccc(F)cc2F)nc1CN1C[C@@H]2C[C@@H](C1)c1cccc(=O)n1C2	18	10	4	4	3.4	2096	3
CCc1ccccc1NC(=O)C1CCCN1C(=O)NCc1ccccc1 (stereo not given)	10	1	-3	-11	1.7	3643	0
CC(=O)N1CCOc2ccc(S(=O)(=O)N3CCN(c4cccc(C(F)(F)F)c4)CC3)cc21	2	2	9	-29	-1.4	5187	10
COC(=O)c1cc(C(=O)OC)n(Cc2ccc(F)cc2)c1C	5	8	-4	-9	3.3	3286	1
O=C(OCc1nc2ccccc2s1)c1cccs1	6	8	0	-3	2.5	8715	6
CCOC(=O)N1CCN(S(=O)(=O)c2ccc3c(c2)OCC(=O)N3)CC1	8	6	3	-16	4.4	2990	2
COc1cc(CCC(=O)Nc2ccc(S(=O)(=O)N3CCOCC3)cc2)cc(OC)c1OC	12	20	.	3	2.9	3084	4
CN(C)C(=O)Nc1ccccc1	3	8	3	-19	2.2	3542	3
Cc1ccc(C(=O)O[C@H](C(=O)O)[C@H](OC(=O)c2ccc(C)cc2)C(=O)O)cc1	-6	-6	3	-6	0.5	4026	2
C=CCONC(=O)Cc1ccccc1	-4	-3	.	2	-1.4	3065	-5
COc1ccc(/C=N/NC(=O)c2ccc(NC(C)=O)cc2)cc1COc1ccc(F)cc1F	.	.	4	-2	.	3666	.
COc1ccc(CNC(=O)C2CC(O)CN2C(=O)Nc2ccccc2)cc1 (stereo not given)	12	7	-9	-7	7.0	3155	7
NC1=NC(c2cccc(O)c2)n2c(nc3ccccc32)N1 (stereo not given)	-14	-2	6	-23	-4.5	8349	-8
O=C(NNc1c2ccccc2nc2ccccc12)c1ccc(O)cc1	18	0	0	-23	2.1	2295	1
CCOC(=O)C1=C(N)N(c2ccccc2)C(=O)C1	.	.	5	-12	-0.1	2667	5
O=C(CSc1ccccc1C(=O)O)NCc1ccc(Cl)cc1	1	5	1	-18	-5.2	7892	3
CCOc1ccc(C(=O)NCCc2ccc3c(c2)OCCO3)cc1	11	9	6	-14	1.7	4625	10
CCN1C=C(C(=O)OC)C(c2cccc(C)c2)C(C(=O)OC)=C1	-4	0	-5	4	-0.5	3735	-4

# (next part)
compound	Mtb hypoxia rep	Mtb hypoxia rep growth	BJeLR viability	PrP 5UTR inh	Sa RN4220 lethal	Bead autofluor	Sa ugtP lethal
COc1cc(/C=N/NC(=O)C(=O)NCc2cccnc2)ccc1O	.	.	-7	-5	.	9833	.
O=C(NNC(=O)c1ccccc1[N+](=O)[O-])c1ccco1	4	3	0	-17	12	4187	4
O=C(CN(C(=O)CNC(=O)c1cccs1)c1ccccc1F)NC1CCCCC1	7	-6	-12	-4	1.6	3863	2
CC1CC(C)CN(CC(O)COc2ccc3c(c2)CCC3)C1 (stereo not given)	-1	6	15	-40	-0.5	2479	1
C[C@H](CO)N1C[C@H](C)[C@H](CN(C)C)Oc2ccc(NS(=O)(=O)c3ccc(F)cc3)cc2CC1=O	6	5	.	-1	-3.2	3495	-2
CC(C(=O)Nc1cccc(S(=O)(=O)N2CCOCC2)c1)N1CCN(C/C=C/c2ccccc2)CC1 (stereo not given)	2	-1	0	-20	5.2	4650	8
CC(C(=O)Nc1ccc(N2CCOCC2)cc1)N1C(=O)c2ccccc2C1=O (stereo not given)	-1	3	-2	-1	-1.4	10589	-1
COCCCN(C(=O)CSCC(=O)Nc1cccc(C)c1)c1c(N)n(Cc2ccccc2)c(=O)[nH]c1=O	-1	-2	2	-29	-0.2	6448	2
CCOc1ccc(N(CC(=O)NC(C)(C)C)C(=O)c2ccco2)cc1	-4	4	2	0	5.6	?	-9
O=C(Cc1ccc(F)cc1)OCC(=O)c1cc2ccccc2o1	12	8	0	-38	-8.0	2388	-3
CC(=O)N1CCN(CC(=O)Nc2cc([N+](=O)[O-])ccc2Cl)CC1	2	8	.	-29	7.0	4412	2
Cc1c(NC(=O)c2ccco2)c(=O)n(-c2ccccc2)n1C	4	0	4	-23	1.3	3714	5
COc1ccccc1NC(=O)NCc1ccc(C)n1C	4	1	13	-18	3.4	3836	1
CCCCn1cnc2cc(NCc3cccc(OC)c3O)ccc21	-1	2	10	-11	1.1	20423*	-4
CCn1nc(C(=O)NC(CCSC)c2nc3ccccc3[nH]2)c2ccccc2c1=O (stereo not given)	1	0	.	.	10.0	.	14
O=C(NCCc1ccc(Cl)cc1)C1CCCN(S(=O)(=O)c2cnc[nH]2)C1 (stereo not given)	.	.	1	5	5.4	4130	-6
N=C1C=CC=C2C1=NC1(CCCCC1)N2O	6	2	6	8	3.3	4586	8
Cc1ccc(Oc2ccc(NC(=O)C3=CC=CN4CCS(=O)(=O)N=C34)cc2)cc1	-11	9	.	-1	-3.0	?	9
O=C(N/N=C1\CC(c2ccccc2)Oc2ccccc21)c1cccnc1 (stereo not given)	.	.	2	-96	.	3833	.
CN1CCN(c2oc(COc3ccc(-c4ccccc4)cc3)nc2C#N)CC1	21	9	15	-6	-5.0	5416	1

# (list continues)
compound	Mtb hypoxia rep	Mtb hypoxia rep growth	BJeLR viability	PrP 5UTR inh	Sa RN4220 lethal	Bead autofluor	Sa ugtP lethal
COc1ccc(Br)cc1C(=O)Nc1ccc(N2CCCC2)cc1	-5	-6	-7	-15	5.9	3695	8
COC(=O)c1ccc(Cc2ccc(C(=O)OC)o2)o1	5	5	-1	-19	3.9	11025	8
Cc1ccc2c(c1)c1ncnc(N3CCc4ccccc4C3)c1n2C	.	.	-6	.	3.1	.	-25
CC1CCN(S(=O)(=O)N2CCC(C(=O)NCCc3ccccc3)CC2)CC1	-12	-7	6	1	1.9	6084	3
CCn1c(=O)cc(OCC(=O)N(C)c2ccccc2F)c2ccccc21	.	.	-2	-1	2.1	6092	7
Cc1ccc([N+](=O)[O-])cc1S(=O)(=O)Nc1ccc(-c2ccc(N3CCCC3)nn2)cc1	-3	5	-1	-13	-0.5	5464	6
CN(Cc1nc2ccccc2s1)C(=O)c1ccc(F)cc1	4	11	-6	-8	6.5	3851	1
O=C(O)COc1ccc(/C=N/NC(=O)c2cccc3ccccc23)cc1	.	.	-11	-9	.	3790	.
O=C(CN1C(=O)C2C3C=CC(C3)C2C1=O)Nc1nc2ccccc2[nH]1 (stereo not given)	18	17	8	-13	2.4	3423	1
Cc1ccc(C)c(S(=O)(=O)NCc2ccc3c(c2)OCO3)c1	11	-2	2	-16	8.7	3120	5
O=C(CCCc1c[nH]c2ccccc12)Nc1ccc2ccccc2c1	14	3	2	-7	-6.7	2122	-15
CCCCn1c(=O)c(C(=O)Nc2ccccn2)c(O)c2ccccc21	-3	15	13	-43	4.5	3817	-9
CN(CC(=O)Nc1cccc(F)c1)C(=O)c1ccc(N2CCCC2)c([N+](=O)[O-])c1	4	12	-3	-4	0.7	5619	2
COc1ccc(S(=O)(=O)N(CC(=O)NCc2ccco2)c2ccccc2OC)cc1	5	3	0	-9	4.1	5882	-3
COc1ccccc1-n1c(O)c(/C=C2\C=Nc3ccccc32)c(=O)[nH]c1=O	.	.	1	-12	.	3966	.
CCCn1c(N)c(C(=O)CSc2nnc(-c3cccnc3)n2-c2ccc(C)cc2C)c(=O)[nH]c1=O	0	12	-2	-2	5.7	2766	6
CCC1CN(C(=O)NCc2ccc(C)cc2)c2ccccc2O1 (stereo not given)	1	1	-5	4	6.7	4321	11
CC1=Nn2c(nc(-c3ccccc3)c2-c2ccccc2)N(CC(N)=O)C(=O)C1	.	.	-4	-10	0.5	4578	2
O=C(CCC(=O)N(CC(=O)NC1CCCCC1)c1ccc(F)cc1)Nc1nccs1	2	-8	5	0	-2.1	3606	0
CCOC(=O)c1sc(N)c(C#N)c1CSc1nc2ccc(C)cc2[nH]1	.	.	-5	-2	-2.2	2753	5

# The results go on:
compound	Mtb hypoxia rep	Mtb hypoxia rep growth	BJeLR viability	PrP 5UTR inh	Sa RN4220 lethal	Bead autofluor	Sa ugtP lethal
O=C(CCCC(=O)N(c1cccc(F)c1)C(C(=O)NC1CCCC1)c1ccc(O)cc1)Nc1ccccn1 (stereo not given)	0	4	-8	-20	3.6	5263	14
CCCC(=O)NC(NC(=S)Nc1ccc(N=Nc2ccccc2)cc1)C(Cl)(Cl)Cl (stereo not given)	5	0	8	-28	0.4	2481	-20
CCOc1ccc(/C=C/C(=O)NCc2ccccc2)cc1	-4	2	-3	-21	-2.2	2355	28
O=C(Nc1cccc(C(F)(F)F)c1)C1CCN(S(=O)(=O)c2cnc[nH]2)CC1	.	.	10	-3	2.0	3317	1
CCOc1ccc(NC(=O)c2ccccc2NC(=O)CNC2CCCC(C)C2C)cc1 (stereo not given)	-3	-4	.	-10	5.1	4124	6
CCOC(=O)C(=NO)C(C)=NNC(=O)C(=O)Nc1cc(Cl)ccc1Cl	6	-1	.	.	3.4	.	-1
COc1ccccc1C(=O)Nc1ccnn1C1CCN(CCC(C)c2ccc(C)o2)CC1 (stereo not given)	5	-8	8	-20	-1.2	5752	-1
O=C(CN1CCc2ccccc2C1)Nc1ccc(Br)cc1	20	10	-2	-21	-4.3	9510	5
COc1cc(C2c3c(oc4ccccc4c3=O)C(=O)N2Cc2ccco2)ccc1O (stereo not given)	-6	11	1	-10	0.0	2510	-9
CCCCCCn1c(=O)c(C(=O)Nc2c(C)n(C)n(-c3ccccc3)c2=O)c(O)c2ccccc21	6	5	10	-18	6.6	5006	1
COc1ccc(C)cc1NC(=O)C(OC(=O)c1ccc([N+](=O)[O-])o1)c1ccccc1 (stereo not given)	0	-1	1	-58	2.6	2153	18
Cc1ccc(OCCC(=O)OCC(=O)N2CC(=O)Nc3ccccc32)cc1	-1	-4	.	6	2.1	8595	1
c1nnc2c3c4c(sc3ncn12)CCC4	3	9	1	-2	3.8	23275*	3
CCOC(=O)c1[nH]cnc1C(=O)Nc1ccc(C)cc1	11	2	-7	-4	3.3	3887	9
COc1ccc(-c2nn(C)c(=O)c3ccccc23)cc1NC(=O)COc1ccccc1	-1	11	-9	-8	8.7	4621	-12
CCOc1cccc(N(C(=O)C2COc3ccccc3O2)C(C(=O)NC2CCCCC2)c2ccc(O)cc2)c1 (stereo not given)	7	-2	-1	-23	-0.7	2486	4
O=C(c1ccc2ncsc2c1)N1CCCC(C(F)(F)F)C1 (stereo not given)	9	3	-1	-27	3.3	6022	12
O=C(CCCN=C1NS(=O)(=O)c2ccccc21)OCC(=O)c1ccc(Br)cc1	-2	3	2	-3	2.3	6065	-7
CCC1C(C#N)=C(N)Oc2c1c(=O)oc1ccccc21 (stereo not given)	-3	-5	-1	-9	3.1	3062	6
CC(CN1CCCC1)OC(=O)C(c1ccccc1)c1ccccc1 (stereo not given)	20	6	6	-20	-0.7	3513	8
CCn1c(Cc2ccccc2)nnc1SCc1nc2ccccc2c(=O)[nH]1	-1	5	3	-16	4.3	4178	-1
CCOC(=O)C1CCN(C(=O)c2cc(C)n(C(C)(C)C)n2)CC1	4	0	3	-10	5.4	?	4

# One compound at a time, from the list above. Order of screens: Mtb hypoxia rep, Mtb hypoxia rep growth, BJeLR viability, PrP 5UTR inh, Sa RN4220 lethal, Bead autofluor, Sa ugtP lethal
# Entry for O=C(c1ccc2ncsc2c1)N1CCCC(C(F)(F)F)C1 (stereo not given) = 9, 3, -1, -27, 3.3, 6022, 12
# Entry for Cc1ccc(OCCC(=O)OCC(=O)N2CC(=O)Nc3ccccc32)cc1 = -1, -4, ., 6, 2.1, 8595, 1
# Entry for CCOC(=O)C1CCN(C(=O)c2cc(C)n(C(C)(C)C)n2)CC1 = 4, 0, 3, -10, 5.4, ?, 4
# Entry for O=C(CCCC(=O)N(c1cccc(F)c1)C(C(=O)NC1CCCC1)c1ccc(O)cc1)Nc1ccccn1 (stereo not given) = 0, 4, -8, -20, 3.6, 5263, 14
# Entry for CCOc1ccc(NC(=O)c2ccccc2NC(=O)CNC2CCCC(C)C2C)cc1 (stereo not given) = -3, -4, ., -10, 5.1, 4124, 6
